Screening data: PubChem, NMMLSC
Autofluor counter = counter-screen for toxin protease inhibitors: compound fluorescence; fluorescence intensity (no concentration beside the values); 360,000 compounds, 3.1% hits; compound autofluorescence counterscreen, microsphere flow cytometry; active compounds read high; AID 624483;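 active = at least 3 SD above the mean of all compounds, about 16000 in these data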;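 also: 100 nL of 1 mM stock went into each well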
An asterisk follows results filed as active. These rows are one share of the data, so the mix of outcomes need not match the whole.

CN[C@H]1C[C@H]2c3[nH]c4ccc(-c5ccc(OC)cc5)cc4c3CCN2C(=O)[C@H]1[C@H](C)O was read as Autofluor counter 4011.
`O=C(CNC(=O)OCc1ccccc1)NCC(=O)NC(Cc1c[nH]c2ccccc12)C(=O)O` (centres undefined) gave Autofluor counter 5912.
CN(C)CCCNC(=S)N1CCC(C(=O)c2ccc(Cl)cc2)CC1 was read as Autofluor counter 2966.
Screening OC[C@@H]1CN(CCc2ccccc2)C[C@H](n2cnc3c(N4CCOCC4)ncnc32)O1 returned Autofluor counter 3868.
`CCc1nc2ccc(C(=O)NCCC(C)C)cn2c1N(CC)CCOC` gave Autofluor counter 2943.
COc1ccc(-c2oc3c(c2C(=O)OCCO)C(OCCO)CCC3)cc1 (centres undefined) was read as Autofluor counter 6040.
`COc1cc(NS(=O)(=O)c2ccc(C)cc2)c2c(c1N)C(=O)c1ccccc1C2=O` gave Autofluor counter 4076.
Screening OC[C@@H]1CN(Cc2ccccc2)C[C@H](n2ccc3c(N4CCCC4)ncnc32)O1 returned Autofluor counter 3768.
For CC(C)c1ccc(C(=O)OCC(=O)Nc2cccc(S(=O)(=O)NC3=NCCC3)c2)cc1 the results were Autofluor counter 3646.
For CC(=O)NC(c1ccccc1)c1nc(-c2cnc3ccccc3c2)cs1 (centres undefined) the results were Autofluor counter 3068.
Screening Cc1ccccc1-c1ccc2c(c1)O[C@@H](CN(C)C(=O)Nc1ccc(C(F)(F)F)cc1)[C@H](C)CN([C@@H](C)CO)S2(=O)=O returned Autofluor counter 3839.
`CCc1cccc(C)c1NC(=O)COC(=O)CCn1c(C)csc1=O` gave Autofluor counter 3983.
CC(=O)Nc1cccc(-c2ccnc3c2CC(C(=O)Nc2cccnc2)O3)c1 (centres undefined) was read as Autofluor counter 3427.
Screening CC(C)CC1NC(=O)c2cc3ccccc3cc2-n2c1nc1ccc(Cl)cc1c2=O (centres undefined) returned Autofluor counter 3826.
Screening Cc1ccc(S(=O)(=O)c2nc(/C=C/c3ccccc3)oc2N2CCC(C(N)=O)CC2)cc1 returned Autofluor counter 3015.
COc1ccccc1CCNC(=O)C1CC(=O)N(c2ccccc2F)C1 (centres undefined) was read as Autofluor counter 4267.
For Cc1ccccc1Nc1nc(N)[nH]c(=O)c1N=O the results were Autofluor counter 6534.
Screening CSc1ccc(CN2C(=O)C(F)(F)Oc3c(C(C)=O)cccc32)cc1 returned Autofluor counter 3895.
Screening CCOC(=O)C1CCN(C(=O)c2ccc3c(=O)n4nc(Nc5ccccc5)sc4nc3c2)CC1 returned Autofluor counter 3767.
`Cc1cccc(C)c1NC(=O)c1cc(S(=O)(=O)N2CCC3(CC2)OCCO3)ccc1F` gave Autofluor counter 3505.
For Cc1cccc(C)c1-n1nnnc1C(c1ccnc2ccccc12)N1CCOCC1 (centres undefined) the results were Autofluor counter 5892.
CC(=NNS(=O)(=O)c1ccc(C)cc1)c1ccncc1 was read as Autofluor counter 3791.
For Cc1ccc(C(=O)N[C@H](C(=O)Nc2cccc(S(=O)(=O)N3CCOCC3)c2)C(C)C)cc1 the results were Autofluor counter 3802.
CC(C)N1CC2(CC(c3ccccc3C(F)(F)F)=NO2)CN1C(=O)c1ccc(C(C)(C)C)cc1 (centres undefined) was read as Autofluor counter 3418.
`COC(=O)[C@H](Cc1ccccc1)NC(=O)/C=C/[C@H]1O[C@@H](n2ccc(=O)[nH]c2=O)[C@H](O)[C@@H]1O` gave Autofluor counter 5532.
`Cc1ccccc1NC(=O)Cc1nc(COC(=O)/C=C/c2ccc(F)cc2)cs1` gave Autofluor counter 2999.
For CCNC(=O)C1(C)CCCN(C(=O)c2cc(C)nn2C(C)(C)C)C1 (centres undefined) the results were Autofluor counter 3567.
CCCC[C@@H]1CC2=C(C(=O)OC(C)(C)O2)[C@H](c2ccc(C(C)C)cc2)O1 was read as Autofluor counter 5989.
Screening Cc1cc(OCC(=O)Nc2c(C(C)C)cccc2C(C)C)no1 returned Autofluor counter 5687.
For COC(=O)C1=C(c2ccc(OCc3ccccc3)cc2)C[C@@H]2CC[C@H]1N2C(=O)NCc1ccc2[nH]ccc2c1 the results were Autofluor counter 3863.
Screening COC(=O)[C@@]1(Cc2ccc(F)cc2)[C@H]2c3cc(C(=O)N(C)C)n(Cc4ccc(Cl)c(C(F)(F)F)c4)c3C[C@H]2CN1C(=O)c1ccccc1 returned Autofluor counter 5677.
COc1cc(C(=O)N2CCC2(C)C(=O)NC(C)C)cc(OC)c1OC (centres undefined) was read as Autofluor counter 3897.
`C[C@H](CO)N1C[C@H](C)[C@@H](CN(C)C(=O)Nc2ccc(F)cc2)Oc2cc(Br)ccc2S1(=O)=O` gave Autofluor counter 2812.
CCOc1ccc(C(=O)N[C@H](C(=O)NC2CCCCC2)C(C)C)cc1 was read as Autofluor counter 3658.
`COc1cccc(Cn2c3ccc(NC(=O)Cc4ccccc4C)cc3c(=O)n2C)c1` gave Autofluor counter 3677.
Screening O[C@@H]1CN(CC2CCCCC2)[C@@H](c2ccccc2)C[C@H]1n1cc(C2CC2)nn1 returned Autofluor counter 3912.
For COC(=O)C[C@H]1C[C@H]2c3cc(NC(=O)C4CCOCC4)ccc3O[C@H]2[C@H](CO)O1 the results were Autofluor counter 3057.
For CCCCCCCCN1C(=O)[C@H](CC(=O)N2CCOCC2)C[C@@]2(C(=O)OCC)CCCC=C12 the results were Autofluor counter 4354.
Screening COc1ccc(S(=O)(=O)N(C)[C@H]2C[C@H]3c4cc(Oc5ccccc5C)ccc4CCN3C(=O)[C@H]2[C@H](C)O)cc1 returned Autofluor counter 3603.
`CCOc1ccccc1CNC(=O)C1CCN(S(=O)(=O)N2CCC(C)CC2)CC1` gave Autofluor counter 3841.
For COCOCCn1cc(CN2CCS(=O)(=O)N(Cc3ccc(-c4cccc(N(C)C)c4)cc3)C(CC(C)C)C2=O)nn1 (centres undefined) the results were Autofluor counter 2857.
`CC(C)CCN1CCC(CN2C(=O)C(=O)NC[C@@H]2CC(C)C)CC1` gave Autofluor counter 6129.
`CN1CCn2cnc(C(=O)N[C@@H](Cc3ccccc3)C(=O)OC(C)(C)C)c2C1=O` gave Autofluor counter 3767.
CCOC(=O)[C@]12Cc3c(cc(OC)c(OC)c3OC)[C@H]1N(C1CCCCC1)C(=O)c1ccccc12 was read as Autofluor counter 4108.
Cc1cccnc1C1=NOC(Cc2ccccc2)C(=O)N1C (centres undefined) was read as Autofluor counter 5060.
`CN(c1ccccc1)S(=O)(=O)c1ccc(C(=O)NCc2cccnc2)cc1` gave Autofluor counter 3721.
Screening CCCCNC(=O)C1(C)CCC(=O)N1CC(F)(F)F (centres undefined) returned Autofluor counter 5358.
For C[C@H](CO)N1C[C@H](C)[C@@H](CN(C)C(=O)Nc2ccccc2F)OCc2cnnn2CCCC1=O the results were Autofluor counter 4327.
`O=C(c1ccccc1)c1ccc(N2CCN(C(=O)c3ccc(F)cc3F)CC2)c(F)c1` gave Autofluor counter 3413.
`O=C(Nc1ccc2c(c1)OCO2)c1cc(C2CCCCN2S(=O)(=O)c2cccs2)on1` (centres undefined) gave Autofluor counter 3944.
For COc1ccc(C(C)(O)c2nc(-c3ccc(F)cc3OC)cs2)cc1 (centres undefined) the results were Autofluor counter 2833.
For CC1(C(=O)NCc2cccc3ccccc23)CCN1Cc1cc2ccccc2o1 (centres undefined) the results were Autofluor counter 3975.
CC(C)C[C@H]1CNC(=O)C(=O)N1C[C@H]1CCCN1C[C@H](CC(C)C)N1C[C@H](Cc2ccccc2)N(CC2CCCCC2)C(=O)C1=O was read as Autofluor counter 6161.
For C=CCCC(=O)N1C[C@H]2CON(C)[C@H]2C[C@H]1c1ccc(N2CCCCC2)cc1 the results were Autofluor counter 7419.
COc1ccc(CN2CCNC(=O)C2CC(=O)N(C)C2CCCCC2)cc1OC (centres undefined) was read as Autofluor counter 4136.
COc1cc2c(cc1[N+](=O)[O-])-c1ccc([N+](=O)[O-])cc1C2=NNC(N)=S was read as Autofluor counter 3763.
Screening Cc1ccc(S(=O)(=O)N(C)C[C@H]2Oc3ncc(Br)cc3C(=O)N([C@H](C)CO)C[C@@H]2C)cc1 returned Autofluor counter 3478.
Cc1ccc(C=Cc2ccccn2)cc1 was read as Autofluor counter 3478.
For C[C@@H]1CN([C@H](C)CO)S(=O)(=O)c2ccc(Br)cc2O[C@H]1CN(C)C(=O)Cc1ccccn1 the results were Autofluor counter 3324.
For O=C(Nc1ccccc1)c1cc(C2CCCN(C(=O)c3ccccc3)C2)on1 (centres undefined) the results were Autofluor counter 3695.
`Cc1cc(C)c2c(=O)n(CC(=O)N3CCN(c4ccccc4)CC3)ccc2n1` gave Autofluor counter 3844.
Screening Cn1ncc([N+](=O)[O-])c1C(=O)Nc1cc(Cl)ccc1Cl returned Autofluor counter 3766.
`COc1ccc(Cc2c(-c3ccc(C#N)cc3)nc3c(Cl)cc(C(F)(F)F)cn23)c(C)c1` gave Autofluor counter 5657.
For O=C(NCCNC(=O)c1ccc(-c2cc(Cl)ccc2Cl)o1)c1cnccn1 the results were Autofluor counter 2966.
CN(CC(=O)Nc1ccc(Cl)c(Cl)c1)C(=O)c1ccccc1SCC(=O)N1CCCC1 was read as Autofluor counter 3574.
For CCOc1ccc(CCN2C(=S)N([C@@H](Cc3ccc(O)cc3)CN3CCC[C@@H]3CN3C(=S)NC[C@@H]3Cc3ccccc3)C[C@@H]2Cc2ccc(O)cc2)cc1 the results were Autofluor counter 6612.
CC(=O)c1ccc(OC2(C)CCN(Cc3cc4ccccc4[nH]3)C2)cc1 (centres undefined) was read as Autofluor counter 3504.
For C[C@H](CO)NC(=O)c1nc[nH]c1C(=O)N[C@H](C)c1ccccc1 the results were Autofluor counter 3737.
`Cc1cccc(OC(=O)c2ccc3c(=O)n4c(nc3c2)CCC4)c1` gave Autofluor counter 2864.
O=C(C[C@@H]1C[C@@H]2c3cc(NS(=O)(=O)c4ccc(F)cc4)ccc3O[C@@H]2[C@H](CO)O1)N1CCc2ccccc2C1 was read as Autofluor counter 2931.
For CCn1nccc1NC(=O)c1ccc2sc([C@@H]3O[C@H](CO)[C@H](O)[C@H](O)[C@H]3O)nc2c1 the results were Autofluor counter 3824.
`Cc1ccc(S(=O)(=O)N2CCC(=O)N([C@H](COC(=O)Nc3ccccc3)Cc3ccccc3)CC2)cc1` gave Autofluor counter 5761.
CCCNC(=O)N(C)C[C@H]1Oc2ncc(C#CCc3ccccc3)cc2C(=O)N([C@H](C)CO)C[C@H]1C was read as Autofluor counter 3269.
Screening COc1ccc(Nc2nc(C)c(C(C)=O)s2)cc1 returned Autofluor counter 5687.
`COc1cc(NC(=O)[C@@H]2O[C@H](CO)[C@@H](O)[C@H]2O)cc(OC)c1OC` gave Autofluor counter 3648.
Screening COc1ccccc1S(=O)(=O)N(C)C[C@H]1OCc2cnnn2CCCC(=O)N([C@@H](C)CO)C[C@@H]1C returned Autofluor counter 3699.
COc1ccc(C(C)=O)cc1Cn1c(C)c(C(=O)NCc2cccc(C(F)(F)F)c2)sc1=O was read as Autofluor counter 5772.
Screening COc1cccc(C(NC(C)=O)c2nc(-c3cc4ccccc4o3)cs2)c1 (centres undefined) returned Autofluor counter 2855.
`O=C(c1cccs1)N1C[C@@H](n2cc(-c3ccc(F)cc3)nn2)[C@H](O)C[C@@H]1c1ccc(Cl)cc1` gave Autofluor counter 3643.
CCN(CC)C(=O)C1=C(C)N(CCCOC)C(=O)C(CC(=O)NCCN2CCOCC2)C1 (centres undefined) was read as Autofluor counter 3243.

Three records drawn at random from the list so far, as already listed:
Screening COc1cccc(C(NC(C)=O)c2nc(-c3cc4ccccc4o3)cs2)c1 (centres undefined) returned Autofluor counter 2855.
CC(=O)c1ccc(OC2(C)CCN(Cc3cc4ccccc4[nH]3)C2)cc1 (centres undefined) was read as Autofluor counter 3504.
CN(CC(=O)Nc1ccc(Cl)c(Cl)c1)C(=O)c1ccccc1SCC(=O)N1CCCC1 was read as Autofluor counter 3574.

The main list resumes, repeating the 5 entries before the break.
Screening COc1ccccc1S(=O)(=O)N(C)C[C@H]1OCc2cnnn2CCCC(=O)N([C@@H](C)CO)C[C@@H]1C returned Autofluor counter 3699.
COc1ccc(C(C)=O)cc1Cn1c(C)c(C(=O)NCc2cccc(C(F)(F)F)c2)sc1=O was read as Autofluor counter 5772.
Screening COc1cccc(C(NC(C)=O)c2nc(-c3cc4ccccc4o3)cs2)c1 (centres undefined) returned Autofluor counter 2855.
`O=C(c1cccs1)N1C[C@@H](n2cc(-c3ccc(F)cc3)nn2)[C@H](O)C[C@@H]1c1ccc(Cl)cc1` gave Autofluor counter 3643.
CCN(CC)C(=O)C1=C(C)N(CCCOC)C(=O)C(CC(=O)NCCN2CCOCC2)C1 (centres undefined) was read as Autofluor counter 3243.
COc1ccc(-c2ccc3nncn3c2)cn1 was read as Autofluor counter 3774.
Screening CS(=O)(=O)Nc1ccc(-c2cnc3cccnn23)cc1 returned Autofluor counter 3958.
For CC(C)NC(=O)N1Cc2cc(C(=O)NC3CCC3)nc(-c3cccc(-c4cncnc4)c3)c2[C@H]1CCO the results were Autofluor counter 6151.
`COc1ccc(S(=O)(=O)N2CCC(C(=O)N[C@@H](C)C(=O)NCc3cccnc3)CC2)cc1` gave Autofluor counter 3469.
Cc1cc(C)cc(-n2c3ccc(NC(=O)Cc4cccc5ccccc45)cc3c(=O)n2C)c1 was read as Autofluor counter 3680.
For Nc1cccc(-c2cncc(N3CCN(Cc4ccccn4)CC3)n2)c1 the results were Autofluor counter 3020.
